# Arbovirus inh = arbovirus infection inhibition | inhibition, % at 10 µM | arbovirus infection cell-based antiviral screen | actives 0.37% (n = 200,000);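 active means inhibition from about 30%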;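 further: bluetongue infection of BSR cells; cell survival read as ATP light after 72 h; 0% = infected wells without compound and 100% = uninfected wells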
# RecA intein inh = inhibitors of M. tuberculosis RecA intein splicing; cell-free RecA intein splicing, fluorescence; inhibition, %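 (about 9 µM by stock and volumes)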; actives 0.75% (n = 290,000); in the data active means inhibition above about 30%; inconclusive means no clear call, values can overlap the other calls;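 further: 0% = vehicle wells and 100% = reference inhibitor control wells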
# Target sequence (P9WHJ3 whole entry, looked up): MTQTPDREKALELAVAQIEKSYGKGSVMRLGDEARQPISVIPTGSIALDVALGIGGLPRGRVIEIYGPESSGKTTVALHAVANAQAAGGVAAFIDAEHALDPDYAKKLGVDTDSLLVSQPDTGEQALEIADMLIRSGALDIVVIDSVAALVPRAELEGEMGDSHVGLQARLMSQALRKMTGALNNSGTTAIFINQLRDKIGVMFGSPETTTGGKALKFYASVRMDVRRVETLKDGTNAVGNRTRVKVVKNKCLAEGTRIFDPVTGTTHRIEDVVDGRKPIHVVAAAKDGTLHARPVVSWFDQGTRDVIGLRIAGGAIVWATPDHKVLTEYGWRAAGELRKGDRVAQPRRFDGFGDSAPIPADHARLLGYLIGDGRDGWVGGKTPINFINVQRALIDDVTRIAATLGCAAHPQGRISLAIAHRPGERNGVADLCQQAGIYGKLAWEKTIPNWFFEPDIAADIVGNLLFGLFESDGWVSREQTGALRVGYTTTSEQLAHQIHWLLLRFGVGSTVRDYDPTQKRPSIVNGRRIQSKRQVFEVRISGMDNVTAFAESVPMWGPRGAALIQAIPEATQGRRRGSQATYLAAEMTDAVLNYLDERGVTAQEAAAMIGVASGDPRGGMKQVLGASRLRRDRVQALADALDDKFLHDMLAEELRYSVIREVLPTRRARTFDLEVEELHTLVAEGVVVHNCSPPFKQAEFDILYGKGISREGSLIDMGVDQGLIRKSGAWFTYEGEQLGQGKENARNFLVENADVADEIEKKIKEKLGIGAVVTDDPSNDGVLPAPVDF
# Mtb betalactam = beta-lactam sensitization of Mtb H37Rv; inhibition, % at 25 µM; actives 0.27% (n = 330,000); M. tuberculosis H37Rv growth with meropenem, percent inhibition; hits of this screen are not shown here; AID 434955;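 active means about 74% or more and at least 40 points above the plate without the antibiotic, then above 30% in a dose series; inconclusive means first-round hits that could not be retested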;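 further: growth measured after seven days incubation then overnight dye step; 0% = bacteria only wells and 100% = bacteria with antibiotic; twin plates without the antibiotic show which effects depend on it; some results filed as inactive read as strong as hits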
# Mtb growth = M. tuberculosis H37Rv growth inhibitors, H37Rv strain (AID 1626) | M. tuberculosis H37Rv growth inhibition; higher % means a stronger effect | one-dose inhibition, % at 10 µM; IC50 in µM for titrated hits | actives 0.95% (n = 220,000);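 active means confirmed in a dose series; inconclusive means inhibition above 80% but not taken into the dose series; inactive means below 80% or under 30% at every dose of the series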;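 further: bacteria incubated seven days before Alamar blue readout; 0% = bacteria only wells and 100% = bacteria with antibiotic wells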
# YopH inh = inhibitors of Yersinia enterocolitica YopH tyrosine phosphatase; fluorescence Ex485/Em525; inhibition, %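 (about 10 µM by stock and volumes)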; actives 0.16% (n = 140,000); AID 898;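 active means inhibition of 50% or more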;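 further: controls were vehicle for no effect and minimum signal wells for full effect; inactives centre near -20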
# Arbovirus inh repeat = further read-out of Arbovirus inh, marked with its call; inhibition, %; measured here: 10K subset replicate screen; many hits read low in the repeat;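 first of two repeat runs on a subset; 0% = infected and 100% = uninfected wells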
# The depositor's hits bear a star; ? = inconclusive; nt = not tested or not shown.
SMILES,Arbovirus inh,RecA intein inh,Mtb betalactam,Mtb growth,YopH inh,others
COc1cc(OC)c2ccc(=O)oc2c1C(CCN1CCCC1)c1ccc2c(c1)OCO2 (centres undefined),nt,0.3,-8,-4%,nt,
Cc1nc(Nc2ccccc2)sc1C,-7,0.2,-5,4%,nt,
Cc1cc(SCc2ccc(Br)cc2)nc(=O)[nH]1,nt,2.5,9,nt,nt,
O=C(CSc1nnc(CNC(=O)c2c(F)cccc2Cl)o1)NCCc1ccccc1,nt,-0.6,1,nt,nt,
CC(C)c1ccc(N(C(=O)c2cc3ccccc3oc2=O)C2C=CS(=O)(=O)C2)cc1 (centres undefined),1,-1.9,1,2%,-17,
Cc1[nH]n(S(=O)(=O)Cc2ccccc2)c(=O)c1N=Nc1ccccc1Cl,7,12,99,?,nt,
CCOc1ccc(NS(=O)(=O)c2ccc(NC(=O)C3CCCO3)cc2)cc1 (centres undefined),10,2.6,0,5%,-17,
N#CC(C#N)=C(N)c1cccnc1,4,-3.4,0,-8%,nt,
Cc1nnc2ccc(-c3cccc(NS(=O)(=O)c4ccccc4Cl)c3)nn12,nt,-2.5,-6,nt,nt,
OC(CN1CCN(c2ncc(C(F)(F)F)cc2Cl)CC1)c1ccccc1 (centres undefined),nt,-0.4,23,nt,nt,
O=C(O)Cn1nc(-c2ccc(F)cc2)oc1=O,2,-1.5,?,-10%,-27,
O=C(Nc1cc(F)ccc1F)N1CCN(c2ccnc3cc(Cl)ccc23)CC1,nt,0.0,17,nt,nt,
COC(=O)CCCn1nc(NC(=O)c2ccco2)cc1C,nt,-1.0,-3,nt,nt,
Cc1nc(SCC(=O)OCc2ccccc2)c2c(=O)n(C)c(=O)n(C)c2n1,-8,0.0,5,-5%,-41,
CCN(CC)S(=O)(=O)c1ccc(C(=O)NNC(=O)C2CCN(S(=O)(=O)c3ccc(Cl)cc3)CC2)cc1,4,-5.8,1,-4%,-33,
CN1CCN(c2nc3c(c(=O)n(C)c(=O)n3C)n2Cc2ccccc2Cl)CC1,nt,0.0,-3,nt,nt,
CCOc1nc(SCCOc2ccc(C)cc2)nc(N(C)C)n1,18,nt,-2,24%,-39,
CC1(C)CC2CC(C)(CN2C(=O)COC(=O)c2cc(Cl)cc(Cl)c2N)C1 (centres undefined),-7,1.2,3,-10%,-15,
COc1cccc(NC(=O)C(C)NS(=O)(=O)c2ccc(Br)cc2)c1 (centres undefined),nt,-1.3,1,nt,nt,
CCN1CCN(C(=O)N(Cc2ccc(Cl)cc2)S(=O)(=O)c2ccc(C)cc2)CC1,nt,-2.8,-8,nt,nt,
O=C(N/N=C/c1ccc(Cl)cc1Cl)c1n[nH]c2c1CCCC2,-5,-0.4,-6,6%,-13,
O=C(Nc1cccc2ncccc12)C(c1ccccc1)c1ccccc1,-1,3.6,7,2%,nt,
O=C(O)c1cccc(-n2cnnn2)c1,2,0.8,-12,1%,-8,Arbovirus inh repeat=0
Cc1ccc(S(=O)(=O)NN/C(=N/S(=O)(=O)c2ccccc2)c2ccccc2)cc1,4,-1.3,0,0%,nt,
CCN(CC)S(=O)(=O)c1cc(NS(=O)(=O)c2cc(Cl)ccc2Cl)ccc1C,26,6.8,-2,-2%,-23,

# Molecules above that contain an aryl methoxy group:
SMILES,Arbovirus inh,RecA intein inh,Mtb betalactam,Mtb growth,YopH inh,others
COc1cc(OC)c2ccc(=O)oc2c1C(CCN1CCCC1)c1ccc2c(c1)OCO2 (centres undefined),nt,0.3,-8,-4%,nt,
COc1cccc(NC(=O)C(C)NS(=O)(=O)c2ccc(Br)cc2)c1 (centres undefined),nt,-1.3,1,nt,nt,

# Back to the main list, starting two compounds before the break.
SMILES,Arbovirus inh,RecA intein inh,Mtb betalactam,Mtb growth,YopH inh,others
Cc1ccc(S(=O)(=O)NN/C(=N/S(=O)(=O)c2ccccc2)c2ccccc2)cc1,4,-1.3,0,0%,nt,
CCN(CC)S(=O)(=O)c1cc(NS(=O)(=O)c2cc(Cl)ccc2Cl)ccc1C,26,6.8,-2,-2%,-23,
Cc1cc(C)nc(SCC(=O)Nc2ccccc2[N+](=O)[O-])n1,0,1.4,nt,-11%,-61,
C=CCN1CCc2cccc3c2[C@H]1Cc1ccc(O)c(O)c1-3,nt,-0.7,0,nt,nt,
CC(=O)O[C@]1(C(C)=O)CCC2C3C=C(C)C4=CC(=O)CC[C@]4(C)C3CC[C@@]21C (some centres undefined),nt,5.1,-6,nt,nt,
Cc1cccc(C(=O)NNC(=O)c2ccccc2)c1,4,-0.6,-8,2%,-26,
O=C(CSc1nnc(-c2ccco2)n1Cc1ccccc1)c1ccc(F)cc1,4,3.5,27,10%,-27,
COCCCNC(=O)Cn1nc(-c2ccc(C)cc2)ccc1=O,13,-2.1,1,-12%,-1,
CN(C)c1ccc(-c2nnc(-c3ccccc3F)o2)cc1,nt,-3.2,-2,nt,nt,
Cc1ccc(-c2nnc(SCC(=O)NNC(=O)COc3cccc(C)c3)n2C)cc1,6,-0.8,4,0%,-35,
O=C(C1CCCCC1)N1CCCC(c2nc3c(nnn3Cc3ccccc3)c(=O)[nH]2)C1 (centres undefined),-7,0.1,-6,3%,-36,
CC1CCCN(c2ncnc3c2cnn3-c2ccc(Cl)cc2)C1 (centres undefined),-4,0.7,10,20%,nt,Arbovirus inh repeat=-4
NS(=O)(=O)c1ccc(CCNC(=O)CCCn2c(=O)[nH]c3ccc(Br)cc3c2=O)cc1,12,-0.6,-5,6%,nt,
CC(C)C(NC(=O)c1c(F)cccc1F)C(=O)NCCc1ccc(S(N)(=O)=O)cc1 (centres undefined),nt,-1.5,3,nt,nt,
CCC(=O)Nc1cc2c(cc1C(=O)CC)OCCO2,-1,-2.5,-7,-7%,-4,
Cc1ccccc1NS(=O)(=O)c1ccc(C(=O)N2CCC2)cc1,nt,4.7,-8,nt,nt,
COc1ccccc1C(=O)N1CCN(Cc2cn[nH]c2-c2ccc(F)cc2F)CC1,0,2.5,4,-6%,nt,
Cc1cccc(Nc2nc3ccccc3s2)c1C,-5,2.4,7,19%,-7,
CCN(CC)CCCNC(=O)c1nn(-c2ccccc2OC)c(=O)c2ccccc12,-2,-0.6,-4,2%,0,
CCOc1cnc(-c2c(-c3ccccc3Cl)noc2C)o1,-4,3.6,0,0%,nt,
CC(=O)Nc1nonc1-c1nc2ccccc2n1Cc1nnc(C)o1,1,2.0,-2,-9%,-27,Arbovirus inh repeat=-3
O=C(C(=O)N1CCc2ccccc2C1)c1c[nH]c2ccccc12,0,0.9,-4,-2%,nt,
CCN(CC)S(=O)(=O)c1ccc(NC(=O)C(OC)c2ccccc2)cc1 (centres undefined),5,1.2,5,2%,-111,
COC(=O)c1sccc1NC(=S)N1CCC(C(N)=O)CC1,4,3.5,-10,6%,nt,
CCCC(=O)NC(c1ccc(C)cc1)c1ccc2cccnc2c1O (centres undefined),nt,-1.2,3,nt,nt,
O=C(Cc1ccccc1)Nc1ccccc1N1CCOCC1,2,-1.7,0,-11%,-1,
CN(C(=O)Nc1ccc(S(=O)(=O)N(C)C)cc1)C1CCCCC1,11,0.3,10,-8%,-15,
# Following part
SMILES,Arbovirus inh,RecA intein inh,Mtb betalactam,Mtb growth,YopH inh,others
Cc1cccc(NC(=O)c2ccccc2NC(=O)C(C)(C)C)n1,8,-1.6,-5,-2%,-38,
Cc1ccc(-c2nn(-c3ccccc3)cc2CN(Cc2ccccc2)C(=O)CCC(=O)O)o1,16,4.7,-7,-4%,19,
O=C(O)COc1c(Cl)cc(/C=C2\NC(=O)NC2=O)cc1Br,1,0.4,-3,-7%,nt,
O=C(NNC(=S)Nc1ccc(F)cc1F)c1ccco1,nt,0.8,-1,nt,nt,
Cc1ccccc1-c1nc(C#N)c(NCc2ccco2)o1,-8,1.1,7,15%,nt,
C/C(=N\NC(=S)NC(C)C)c1ccccc1OC(F)F,7,0.7,66,2%,nt,
Cn1nc(C(=O)Nc2ccc(S(=O)(=O)N3CCOCC3)cc2)c2ccccc2c1=O,-1,-1.3,-1,7%,nt,
O=C(Cn1c(=O)n(CC2CCCO2)c(=O)c2ccccc21)c1ccccc1 (centres undefined),0,3.2,-2,1%,-39,
O=[N+]([O-])c1ccccc1-c1cc(-c2cc(Cl)ccc2O)n[nH]1,-36,11,-5,12%,-22,
NC(=NCCc1c[nH]c2ccccc12)NS(=O)(=O)c1ccc2ccccc2c1,-27,7.1,3,11%,-2,
CCn1cnc2scc(-c3ccc(OC)cc3)c2c1=O,nt,1.3,4,nt,nt,
NS(=O)(=O)c1ccc(NC(=O)Nc2cccc3ccccc23)cc1,nt,1.9,5,nt,nt,
O=C1Nc2cc(Br)ccc2C1(O)c1ccccc1O (centres undefined),nt,0.7,-8,nt,nt,
CC(=O)c1ccc(-c2ccc(C(=O)NCC3CCCO3)o2)cc1 (centres undefined),nt,-15,-2,nt,nt,
Nc1ccc2nc(N3CCOCC3)sc2c1,-4,80*,8,1%,nt,
COCCCn1c2nc3ccccc3nc2c2c(=O)n(Cc3ccc(Cl)cc3)cnc21,-20,1.9,0,9%,-8,
Cc1c(NC(=O)CSc2nc(-c3ccco3)cc(C(F)(F)F)n2)c(=O)n(-c2ccccc2)n1C,4,0.9,-15,1%,25,
CC(=O)N1CCN(CC(O)COc2ccc(OCc3ccccc3)cc2)CC1 (centres undefined),2,-0.2,14,8%,-1,
O=C(Nc1ccc2c(c1)OCO2)C1CC(=O)N(c2cccc(Cl)c2)C1 (centres undefined),nt,-0.7,-2,nt,nt,
FC(F)(F)C1=CC(c2ccc(Cl)cc2)=NCCN1,-5,0.9,-19,-4%,-113,
CC1CCN(C(=O)CSc2nnc3ccc(-c4cccnc4)nn23)CC1,nt,-1.4,-4,nt,nt,
CCOC(=O)Cc1csc(N/C(=N/S(=O)(=O)c2ccc(F)cc2F)c2ccccc2)n1,2,1.7,0,-9%,3,
CCN(CC(=O)NC(C)C)C(=O)CCNC(=O)c1ccc(Cl)cc1,9,-0.6,7,1%,-43,
CCOC(=O)CSc1nc(C)cc(C)c1C#N,7,-2.3,21,-8%,0,
O=C(Nc1ccccc1O)c1ccc(Cl)cc1,11,1.4,-6,-6%,-32,
# Continuation.
SMILES,Arbovirus inh,RecA intein inh,Mtb betalactam,Mtb growth,YopH inh,others
Cc1nc2sc(C(c3cccs3)N3CCN(c4cccc(Cl)c4)CC3)c(O)n2n1 (centres undefined),20,8.8,2,-1%,-22,Arbovirus inh repeat=4
FCCCOc1ccc(-c2nccc(-c3ccc(Cl)cc3)n2)cc1,-1,3.3,16,-2%,-21,
Cc1nnc(NC(=O)C2CCCC2)s1,nt,0.6,1,nt,nt,
Cc1nn(CC(=O)N2CCN(C34CC5CC(CC(C5)C3)C4)CC2)c(C)c1[N+](=O)[O-],nt,0.1,-5,nt,nt,
Cc1nn(CC(=O)NC2CCCCC2)c(=O)c2cccn12,nt,-1.9,-4,nt,nt,
O=C(NNC(=O)C1CC1)c1cc(Cl)nc2ccccc12,nt,0.5,-3,nt,nt,
CCOC(=O)Cc1csc(NC(=O)Nc2ccccc2)n1,11,20,-2,nt,-13,Arbovirus inh repeat=5
Cc1ccc(-c2csc(N3CCN(c4cc5c(cc4Cl)nc(-c4ccncc4)n5CCOCCO)CC3)n2)cc1,nt,14,92,nt,nt,
COc1ccc(S(=O)(=O)N(CCCN2CCCC2=O)Cc2cc3c(C)ccc(C)c3[nH]c2=O)cc1,5,5.6,8,-10%,-33,
Cc1ccc(NC(=O)Nc2ccc3c(c2)nc(C)n3C)cc1,-3,-1.6,-7,4%,nt,
O=[N+]([O-])c1ccc(Cc2ccncc2)cc1,16,1.0,-2,-3%,nt,
O=C(c1ccc(Cl)cc1Cl)N1CCC(C(=O)N2CCOCC2)CC1,nt,1.1,-5,nt,nt,
Cc1ccc(CN2CCNC(=O)C2CC(=O)NC2CCCCCC2)cc1 (centres undefined),nt,0.2,-6,nt,nt,
S=C(Nc1ccccc1Oc1ccccc1)Nc1cccc(Cl)c1Cl,11,5.9,4,11%,-14,

# 3 records picked at random from the list so far:
SMILES,Arbovirus inh,RecA intein inh,Mtb betalactam,Mtb growth,YopH inh,others
O=C(c1ccc(Cl)cc1Cl)N1CCC(C(=O)N2CCOCC2)CC1,nt,1.1,-5,nt,nt,
S=C(Nc1ccccc1Oc1ccccc1)Nc1cccc(Cl)c1Cl,11,5.9,4,11%,-14,
O=C(NNC(=O)C1CC1)c1cc(Cl)nc2ccccc12,nt,0.5,-3,nt,nt,

# Only part of the results is shown. The share of hits here may be higher or lower than overall.
